Screens from PubChem BioAssay.
SARS PLP yeast: qHTS of Yeast-based Assay for SARS-CoV PLP. Potency, µM (highest dose often 32.9 µM), for the others: at the highest dose activity, positive = growth rescue. 330,000 tested, 0.19% active. S. cerevisiae expressing SARS-CoV PLpro, growth rescue; control for the full effect not named in the record; note: 0% is about no effect; nearly all actives have a fitted effect of over 55% in size; growth read by luminescence after 48 h
StopGo reporter: High Throughput Screening for Foot and Mouth Disease Virus Antivirals | AID 1159524, 2015 | Potency, µM (doses to about 57.9 µM), for inactives: at the highest dose signal change, negative = less light | 410,000 tested, 1.2% active | human cells with a luciferase reporter of 2A StopGo recoding; control for the full effect not named in the record; active = well fitted falling curve with a large enough effect; inconclusive = small, poorly fitted or top-dose-only effect; inactive = no such curve, though single readings can be large or run the other way; tested in HEK293T cells; note: % is set by controls: 0 for no effect and ±100 for the full control effect; nearly all actives have a fitted effect of over 45% in size; luciferase light after 4 h
Cruzain inh noDet: qHTS Assay for Promiscuous and Specific Inhibitors of Cruzain (without detergent); Cruzipain (Trypanosoma cruzi), P25779; purified cruzain, Z-FR-AMC fluorescence, no detergent; Potency, µM, for the others: max response, negative = inhibition, actives largely listed as inhibitors; 200,000 tested, 2.3% active; active = well fitted curve in the direction sought with a large enough effect; inconclusive = small, poorly fitted or top-dose-only effect, or another doubt; inactive = no such curve, though single readings can be large; an effect the other way counts as inactive or inconclusive;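 note: plate controls were enzyme without inhibitor for no effect and buffer without enzyme for full effect; nearly all actives have a fitted effect of over 40% in size; top concentration of the series not given in the record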
Target sequence (P25779 123-467 limits assumed): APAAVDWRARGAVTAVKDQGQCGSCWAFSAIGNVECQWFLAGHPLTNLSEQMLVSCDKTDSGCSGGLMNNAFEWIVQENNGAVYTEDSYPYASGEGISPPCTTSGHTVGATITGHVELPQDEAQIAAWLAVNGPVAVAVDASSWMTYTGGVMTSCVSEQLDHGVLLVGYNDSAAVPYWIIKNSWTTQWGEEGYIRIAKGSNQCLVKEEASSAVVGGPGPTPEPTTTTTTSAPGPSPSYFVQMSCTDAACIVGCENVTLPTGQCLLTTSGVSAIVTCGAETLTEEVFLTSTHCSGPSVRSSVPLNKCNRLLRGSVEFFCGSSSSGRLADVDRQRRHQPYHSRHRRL
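Detergent-free condition (0.00005% Triton X-100) in acetate buffer pH 5.5 with DTT. 1.5 nM enzyme and compound were pre-mixed 15 min, then 2 uM Z-FR-AMC substrate added; reaction progress from fluorescence change between first and third reads (60 s).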
RE007 growth inh: qHTS Assay for Inhibitors of the HIV-1 protein Vpr | S. pombe RE007 Vpr strain, BacTiter-Glo ATP luminescence, 24 h; control for the full effect not named in the record | Potency, µM (doses to about 92.2 µM), inactives show at the highest dose activity change, negative = less growth | 360,000 tested, 0.21% active | AID 651644, 2012; active = well fitted falling curve with a large enough effect; inconclusive = small, poorly fitted or top-dose-only effect; inactive = no such curve, though single readings can be large or run the other way;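 note: % is set by controls: 0 for no effect and ±100 for the full control effect; nearly all actives have a fitted effect of over 50% in size; the assay follows cell death caused by Vpr and the record does not say whether a fall means rescue or toxicity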
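Fission yeast RE007 carrying one integrated HIV-1 vpr copy, seeded at OD 0.01 in PMG+AL medium with 23 nL pinned compound. Grown 24 h at 30 degrees; viability read by BacTiter-Glo luminescence after 5 min.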
Cruzain inh Det: qHTS Assay for Promiscuous and Specific Inhibitors of Cruzain (with detergent); Potency, µM, for inactives: max response, negative = inhibition, actives largely listed as inhibitors; purified cruzain, Z-FR-AMC fluorescence, 0.01% Triton; 200,000 tested, 0.43% active; Cruzipain (Trypanosoma cruzi), P25779; active = well fitted curve in the direction sought with a large enough effect; inconclusive = small, poorly fitted or top-dose-only effect, or another doubt; inactive = no such curve, though single readings can be large; an effect the other way counts as inactive or inconclusive;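 note: plate controls were neutral wells for no effect and buffer without enzyme for full effect; nearly all actives have a fitted effect of over 40% in size; top concentration of the series not given in the record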
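15 min RT preincubation of 1.5 nM cruzain with compound, then 2 uM Z-FR-AMC added; kinetic AMC fluorescence, 60 s delta. Triton X-100 0.01%, pH 5.5.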
LASV entry inh: qHTS for Inhibitors of binding or entry into cells for Lassa Virus | Potency, µM (top dose mostly 37.9 µM), inactives show at the top dose activity change, negative = inhibition, actives largely listed as inhibitors | Lassa virus pseudotype entry inhibition, cell reporter; control for the full effect not named in the record | 300,000 tested, 1.2% active; active means well fitted inhibition curve with a large enough effect; inconclusive means small, poorly fitted or top-dose-only effect, or effect the other way; inactive means flat fitted curve, though single readings scatter; tested in HEK293 cells; note: % is set by controls: 0 for no effect and ±100 for the full control effect; nearly all actives have a fitted effect of over 50% in size; luciferase read-out
NS1 function inh: qHTS Assay for Inhibitors of Influenza NS1 Protein Function; Potency, µM (series often up to 46.1 µM), for inactives: at the highest dose activity, positive = more growth; AID 2326, 2010; S. cerevisiae slowed by influenza A NS1, growth recovery by OD600; 270,000 tested, 0.4% active; note: actives are rising curves; nearly all actives have a fitted effect of over 50% in size
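Growth recovery, yeast-based: influenza A NS1 expressed in S. cerevisiae causes slow growth, and suppressors are detected by OD600. The parent strain without NS1 is used as positive control.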
Marburg entry inh: qHTS for inhibitors of binding or entry into cells for Marburg Virus. Marburg virus pseudotyped entry inhibition, cell reporter; control for the full effect not named in the record; about a third of the inactives were read at about 46 µM. Potency, µM (series often up to 37.8 µM), for inactives: at the highest dose activity change, negative = inhibition, usual class: inhibitors. 300,000 tested, 1.8% active; active = well fitted inhibition curve with a large enough effect; inconclusive = small, poorly fitted or top-dose-only effect, or effect the other way; inactive = flat fitted curve, though single readings scatter; tested in HEK293 cells; about a fifth of its hits are not listed in these tables; note: % is set by controls: 0 for no effect and ±100 for the full control effect; luciferase read-out
Numbers without * were called inactive; ? = inconclusive; / = no result given; & = joins results of further samples; [ ] = dose if it differs, or a comment. Unless noted, calls come from the whole dose curve; as a rule, active means well fitted rising curve with a large enough effect; inconclusive means small, poorly fitted or top-dose-only effect; inactive means no such curve, though single readings can be large or run the other way. Potency is the fitted concentration of half-maximal effect.

SMILES	SARS PLP yeast	StopGo reporter	Cruzain inh noDet	RE007 growth inh	Cruzain inh Det	LASV entry inh	NS1 function inh	Marburg entry inh
CCc1cc(C(=O)c2ccc(OC)cc2)c(NC(=O)CCC(=O)O)s1	-0.2%	-9.8%	/	-7.7%	/	20.3%	0.9%	14.3%
COC(=O)c1cc(C(=O)OC)n(Cc2ccc(Cl)cc2Cl)n1	-13.8%	-0.1%	-2.3%	1.7%	0.9%	-0.4%	-72.0%	?
CCS(CC)=NS(=O)(=O)c1ccc(NC(C)=O)cc1	4.3%	-21.9%	-7.4%	14.5%	3.4%	8.7%	-8.7%	-2.6%
O=C(CN1C(=O)C2C3C=CC(C3)C2C1=O)Nc1ccc(S(=O)(=O)N2CCCCC2)cc1 (configuration not stated)	6.7%	-24.9%	0.7%	-2.1%	-7.0%	2.0%	6.4%	15.6%
Cc1nn(C)c(C)c1NC(=O)c1cc2nc(-c3ccco3)cc(C(F)(F)F)n2n1	-0.4%	-6.5%	/	-14.0%	/	-17.9%[46.1 µM]	-0.6%	2.3%[46.1 µM]
O=C(/C=C/c1ccccc1)Nc1ncn[nH]1	-26.2%	0.0%	2.0%	-12.9%	4.6%	?	-207.8%	?
CCc1cccc(NC(=O)c2ccc(CNS(=O)(=O)c3ccc4c(c3)C(C)(C)C(=O)N4C)cc2)c1	/	22.4µM*	19.9%	/	-5.4%	?	/	/
CCn1c(SCC(=O)n2c(C)c(C)c3ccccc32)nnc1-c1ccco1	2.5%	-13.8%	11.7%	17.7%	-6.4%	0.2%	-24.5%	-4.2%
COc1ccc(C(=O)N2CCN(CCNC(=O)C(=O)Nc3ccc(F)cc3)CC2)cc1OC	1.1%	2.6%	/	1.7%	/	11.1%[46.1 µM]	10.5%	18.0%[46.1 µM]
O=[N+]([O-])c1ccc(N2CCN(S(=O)(=O)c3cnc[nH]3)CC2)cc1	0.4%	-2.4%	/	14.6%	/	22.3%[46.1 µM]	0.5%	1.3%[46.1 µM]
O=C(c1ccccc1)N1CCOC12CCN(c1ncc(C(F)(F)F)cc1Cl)CC2	9.2%	15.8µM*	3.7%	10.8%	-1.8%	?	5.7%	-27.2%
CCCCNC(=O)c1ccc2c(c1)ncn2C1CCCCC1	4.9%	16.3%	5.6%	3.9%	5.8%	13.9%	-3.3%	7.3%
CC(=O)C1=C(C)N(CC2CC2)C(=O)N[C@H]1c1ccc(Br)cc1	16.7%	-20.7%	-7.5%&-10.0%	0.8%	-2.3%&-2.7%	-13.3%	-11.5%	-5.4%
CC(=O)c1cccc(S(=O)(=O)N2CCC(C(=O)NC3CCCC3)CC2)c1	-0.7%	-6.1%	/	3.1%	/	10.3%	/	2.8%
Cc1c(C(=O)Nc2c(F)cccc2F)sc2ncn(Cc3ccccc3F)c(=O)c12	/	-25.2%	-2.3%	/	-2.8%	-9.7%[46.1 µM]	/	/
CCOc1ccc2[nH]c(O)c(NC(C)=O)c2c1	0.3%	/	-6.7%	-6.1%	5.2%	14.3%	-2.3%	20.2%
CC1=C(C(=O)OC2CCCC2)C(c2c(F)cccc2Cl)CC(=O)N1 (configuration not stated)	/	?	-7.2%	/	-6.0%	-19.8%[46.1 µM]	/	-2.6%[46.1 µM]
O=C(Nc1ccccc1)c1ccc(S(=O)(=O)N2CCC(C(=O)O)CC2)cc1	2.6%	-9.9%	/	2.6%	/	-0.3%	3.4%	-6.6%
Cc1cccc(C)c1NC(=O)C(NC(=O)CN1C(=O)c2ccccc2C1=O)c1ccccc1 (configuration not stated)	-8.2%	16.1%	?	-16.3%	2.4%	?	-5.9%	0.3%
O=C(Nc1ccc(Br)c(C(F)(F)F)c1)c1ccccc1	-82.6%	-23.8%	-2.9%	-24.9%	-10.6%	?	-51.8%	-15.0%
O=C1C=CC2C(c3ccc4c(c3)OCO4)CC1N2Cc1ccccc1 (configuration not stated)	7.6%	-28.6%	4.4%	-20.3%	-5.0%	7.9%	3.6%	2.5%
Cc1ccccc1OCC(=O)Nc1nc(C)c(C(=O)N(C)C)s1	4.1%	15.8%	11.8%	-28.8%	-2.8%	2.9%	-1.9%	4.5%
CCCCn1c(SCC(=O)Nc2cc(NC(=O)c3ccco3)ccc2C)nc2ccccc2c1=O	1.1%	-11.7%	-8.2%	11.6%	-3.9%	?	-4.3%	?
CC(CNC(=O)C1CCN(S(=O)(=O)c2ccc3c(ccn3C)c2)CC1)c1ccccc1 (configuration not stated)	/	-2.9%	-1.8%	/	-0.3%	-8.8%[46.1 µM]	/	/
COc1ccc(N(CC(=O)Nc2cc(Cl)ccc2OC)C2=NC3CS(=O)(=O)CC3S2)cc1 (configuration not stated)	3.1%	-12.9%	/	7.1%	/	/	-4.0%	/
COc1cccc(N2C(=O)C3CC=C(Cl)CC3C2=O)c1 (configuration not stated)	-3.2%	-17.6%	-0.6%	6.0%	0.8%	6.3%	3.5%	-1.4%
O=C(NNC(=S)NC1CCCCC1)c1ccccc1Br	1.9%	51.8%[activator]	/	7.0%	/	/	10.6%	/
O=C(Cc1c(O)c2ccccc2[nH]c1=O)NCc1ccc(F)cc1	2.6%	4.8%	-0.1%	-10.2%	1.0%	16.1%	?	17.3%
COc1ccc(/C=C2\SC(=O)N(CC(=O)Nc3ccc(F)cc3)C2=O)cc1O	11.7%	35.1%[activator]	/	7.5%	/	/	-7.6%	/
COc1cccc(C(c2sc3nc(C)nn3c2O)N2CCC3(CC2)OCCO3)c1 (configuration not stated)	21.6%	15.5%	6.1%	-16.2%	-2.2%	7.5%	1.6%	-34.1%
O=C(c1ccccc1SCc1ccc(F)cc1)N1CCOCC1	0.4%	-10.3%	/	17.7%	/	/	0.4%	/
COc1ccc(CNc2ncc(-c3ccc(F)cc3)n2C)c2ccccc12	1.1%	-19.6%	/	3.4%	/	-26.5%[46.1 µM]	-10.2%	?
O=C(NC12CC3CC(CC(C3)C1)C2)c1ccco1	-1.8%	1.9%	/	-21.7%	/	-8.2%	-2.4%	-8.5%
CC(C)(C)C(=O)Nc1nnc(SCC(=O)NC2CCCCC2)s1	-0.5%	-0.2%	/	-2.8%	/	7.3%	-13.1%	7.4%
O=C(NC1(C(F)(F)F)C(=O)Nc2c1c(=O)[nH]c(=O)n2CCc1ccccc1)c1ccc(Cl)cc1 (configuration not stated)	/	-5.6%	-2.4%	/	2.1%	-22.3%[46.1 µM]	/	/
CCN1C(=O)C(O)(CC(=O)c2ccccn2)c2ccccc21 (configuration not stated)	3.5%[6.58 µM]	-8.9%	-0.3%	-2.7%[3.69 µM]	1.4%	-4.1%	7.4%	6.4%
Cc1cc(C)nc(N(C#N)Cc2cccc([N+](=O)[O-])c2)n1	0.7%	-7.3%	/	0.7%	/	/	-2.0%	/
COc1ccc(NC2=NCCCS2)cc1OC	1.5%	-6.5%	/	4.4%	/	3.0%[46.1 µM]	-3.0%	?
O=C(COc1ccccc1)N1c2ccccc2Sc2ccccc21	9.0%	-17.5%	-5.3%	12.3%	-4.0%	3.8%	-40.2%	?
Cc1nc2ccccc2nc(C)c1=NOCc1cccc(F)c1	-0.1%	?	/	-9.0%	/	2.82µM*	/	?
NC(CCCP(=O)(O)O)C(=O)O (configuration not stated)	/	/	-5.0%	/	2.0%	5.0%	0.0%	?
Cc1c(F)cccc1NC(=O)CCC(=O)O	-1.1%	4.6%	2.5%	21.6%	-0.4%	-1.0%	-5.7%	-3.9%
Cc1ccccc1-c1cc(-c2ccccc2O)n[nH]1	-8.6%	57.3%[activator]	-14.1%	?	-10.0%	-26.4%	-150.1%	-0.4%
Cc1sc(NC(=O)C2CSC3(C)CCC(=O)N23)nc1-c1ccccc1 (configuration not stated)	5.9%	-6.2%	/	1.3%	/	?	/	-23.5%
CCc1ccc(-n2c(N3CCN(c4cccc(C)c4C)CC3)nc3ccccc3c2=O)cc1	/	-17.3%	?	/	-1.9%	-1.7%[46.1 µM]	/	7.0%[46.1 µM]
S=C(Nc1ccc(Cl)cc1)c1nc2ccccc2[nH]1	-42.2%	-23.4%	-17.2%	6.31µM*	-2.0%	?	-49.6%	?
O=C(NCc1ccccc1)/C(=C/c1ccco1)NC(=O)c1ccco1	-3.0%	16.8%	/	-11.3%	/	1.2%	/	22.1%
O=C1CC(c2ccc(Cl)cc2)n2nc(N3C(=O)c4ccccc4C3=O)nc2N1 (configuration not stated)	17.2%	-26.0%	3.6%	4.4%	1.9%	7.8%	-30.3%	-6.3%
O=C(c1cc(Br)c[nH]1)N1CCCCC1	1.1%	-7.0%	/	-6.1%	/	/	-0.5%	/
CCc1ccc(NC(=O)CSC2=Nc3ccccc3C3=NC(CCC(=O)NCc4cccs4)C(=O)N23)cc1 (configuration not stated)	/	-24.2%	-4.6%	/	2.0%	-10.4%[46.1 µM]	/	/
COc1ccc2c(CC(=O)N3CCc4ccccc43)coc2c1	-6.2%	17.6%	-14.0%	-11.8%	-1.0%	-27.5%	-3.3%	?
COc1cccc(C(=O)NCc2n[nH]c(=S)n2-c2cccc(C)c2)c1	-2.3%	/	1.2%	8.0%	5.7%	-2.6%	0.5%	15.2%
O=C(CN1C(=O)C(=O)N(Cc2ccccc2)C1=O)Nc1ccc(F)c(Cl)c1	0.5%	-2.7%	/	-2.1%	/	-26.8%[46.1 µM]	/	-2.8%[46.1 µM]
CCOC(=O)C1CN(S(=O)(=O)c2ccc(OC)cc2)c2cc(CC(=O)OC)ccc2O1 (configuration not stated)	-8.5%	13.2%	6.0%	20.6%	0.9%	?	-0.2%	-1.3%

Random draw from the library; 4.7% or so of the library scored in one or more.
